Compound activity deposited in PubChem BioAssay by several laboratories.
Mtb bLac sens = beta-lactam sensitization of Mtb H37Rv, H37Rv | inhibition, % at 25 µM | M. tuberculosis H37Rv growth with meropenem, percent inhibition; hits of this screen are not shown here | actives 0.27% (n = 330,000);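 active means about 74% or more and at least 40 points above the plate without the antibiotic, then above 30% in a dose series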;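 further: growth measured after seven days incubation then overnight dye step; 0% = bacteria only wells and 100% = bacteria with antibiotic; twin plates without the antibiotic show which effects depend on it; some results filed as inactive read as strong as hits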
YopH inh = YopH tyrosine phosphatase inhibitors, primary screen, biochemical, fluorescence Ex485/Em525 | YopH tyrosine phosphatase [Yersinia enterocolitica] | inhibition, %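 (about 10 µM by stock and volumes)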 | actives 0.16% (n = 140,000) | AID 898, 2007;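 active means inhibition of 50% or more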;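 further: controls were vehicle for no effect and minimum signal wells for full effect; inactives centre near -20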
RecA splice inh = Mtb RecA intein splicing inhibitors, primary screen, biochemical, fluorescence, HTS; cell-free RecA intein splicing; inhibition, %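 (about 9 µM by stock and volumes)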; actives 0.75% (n = 290,000); AID 2221, 2009; in the data active means inhibition above about 30%;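 further: 0% = vehicle wells and 100% = reference inhibitor control wells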
Target sequence (P9WHJ3 whole entry, looked up, canonical isoform): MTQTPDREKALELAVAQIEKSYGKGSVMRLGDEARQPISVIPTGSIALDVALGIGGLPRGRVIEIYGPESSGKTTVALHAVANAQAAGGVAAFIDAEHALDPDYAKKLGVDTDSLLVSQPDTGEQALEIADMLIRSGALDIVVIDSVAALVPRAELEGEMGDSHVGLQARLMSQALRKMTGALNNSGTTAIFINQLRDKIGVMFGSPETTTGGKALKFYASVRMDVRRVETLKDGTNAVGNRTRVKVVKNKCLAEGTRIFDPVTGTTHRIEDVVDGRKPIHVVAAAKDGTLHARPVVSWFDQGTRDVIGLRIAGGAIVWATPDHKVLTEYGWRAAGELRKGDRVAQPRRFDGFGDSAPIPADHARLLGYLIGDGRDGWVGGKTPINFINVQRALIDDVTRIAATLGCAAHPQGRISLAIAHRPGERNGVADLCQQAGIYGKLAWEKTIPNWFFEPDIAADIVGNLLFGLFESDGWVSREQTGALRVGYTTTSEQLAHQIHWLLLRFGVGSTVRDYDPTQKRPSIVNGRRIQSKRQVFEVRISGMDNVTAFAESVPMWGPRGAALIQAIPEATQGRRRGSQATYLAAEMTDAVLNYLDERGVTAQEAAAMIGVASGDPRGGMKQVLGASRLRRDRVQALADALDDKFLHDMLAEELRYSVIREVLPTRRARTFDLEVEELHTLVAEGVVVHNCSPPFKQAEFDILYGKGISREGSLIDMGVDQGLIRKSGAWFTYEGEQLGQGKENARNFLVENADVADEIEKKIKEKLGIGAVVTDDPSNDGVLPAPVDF
Arbovirus inh = antivirals against arbovirus infection, primary screen, cell-based, full library, 10K replicate subset; arbovirus infection cell-based antiviral screen; inhibition, % at 10 µM; actives 0.37% (n = 200,000);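 active means inhibition from about 30%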;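 further: bluetongue infection of BSR cells; cell survival read as ATP light after 72 h; 0% = infected wells without compound and 100% = uninfected wells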
Mtb growth = M. tuberculosis H37Rv growth inhibitors, H37Rv strain (AID 1626); M. tuberculosis H37Rv growth inhibition; higher % means a stronger effect; inhibition, % at 10 µM; hits with a dose series show IC50 in µM; actives 0.95% (n = 220,000);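 active means confirmed in a dose series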;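 further: bacteria incubated seven days before Alamar blue readout; 0% = bacteria only wells and 100% = bacteria with antibiotic wells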
Arbovirus inh repeat = recorded beside Arbovirus inh, whose call it bears; inhibition, %; measured here: 10K subset replicate screen; many hits read low in the repeat;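 first of two repeat runs on a subset; 0% = infected and 100% = uninfected wells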
Starred values were filed as active, the others as inactive; . = not tested or not shown; & = joins results of further samples. A portion of the library. The share of hits here may be higher or lower than overall.

SMILES	Mtb bLac sens	YopH inh	RecA splice inh	Arbovirus inh	Mtb growth	others
O=C(NC1CCCC1)C(c1ccsc1)N(Cc1ccco1)C(=O)Cc1cccs1 (stereo not drawn)	1.0	-18.6	4.7	-9.9	-11.4%
Cc1ccccc1Nc1nc(N)nc(CSc2nnc3ccccn23)n1	3.7	.	-9.9	12.0	-3.4%
CCCn1c(SCC(=O)NCC)nc2sc3c(c2c1=O)CCC3	0.5	.	-3.1	.	.
O=C(c1ccccc1)c1ccc(C(=O)N2CCN(c3ccc(F)cc3)CC2)o1	4.7	-47.0	9.6	-13.4	-6.3%
COc1ccc(CNc2ccc([N+](=O)[O-])cn2)cc1	-2.4	.	-3.3	.	.
CCOC(=O)CN1C(=N)N(c2nc(NC(C)C)nc(OC)n2)CC1=O	-7.5	.	-0.8	.	-9.9%
O=C(Nc1ncc(C(F)(F)F)cc1Cl)C1COc2ccccc2O1 (stereo not drawn)	46.1	6.6	-0.4	-4.1	3.7%
CC1(C)CC2(CCO1)OC(=O)CC2C(=O)NCCc1ccccc1 (stereo not drawn)	6.5	-16.4	-3.5	4.9	-3.9%
Cc1nc2ccc(N)cc2s1	-14.3	-50.5	16.8	-5.8	0.6µM*	Arbovirus inh repeat=-7.4
CCCc1cc(=O)[nH]c(SCC(=O)NC)n1	-13.0	-40.5	-0.3	71.9*	3.8%
O=C(CSc1nc2ccccc2c(=O)n1CC1CCCO1)Nc1ccc(F)cc1 (stereo not drawn)	7.4	.	1.1	.	.
CCOC(=O)c1c(SCC(=O)Nc2nccs2)nc(C)c(C)c1C	25.9	.	-131.6	.	.
CN(C)c1ccc(-c2nnn(CC(=O)Nc3ccc4c(c3)OCCO4)n2)cc1	-7.0	.	-1.7	-14.4	4.4%
Cn1c(SCCN2CCCCC2)nnc1-c1ccccc1Br	-5.2	9.3	13.2	4.0	-8.0%
COc1cc(C(=O)NCCCNC(=O)c2cc(OC)c(OC)c(OC)c2)cc(OC)c1OC	-2.1	.	-2.3	.	.
COc1cc(/C=C2\SC(N3CCC(C)CC3)=NC2=O)ccc1O	5.7	.	2.6	.	.
N[C@@H](Cc1c[nH]c2ccccc12)C(=O)O	.	.	0.1	.	-5.3%
O=C(NCC1CCCO1)c1ccc(COc2ccccc2)o1 (stereo not drawn)	-12.2	.	-0.7	.	.
CCCCN(CCCC)Cc1ccc(N)cc1	-3.9	-13.7	-0.8	7.9	2.4%
NC(N)=Nc1nc(-c2ccccc2)c2cc(F)ccc2n1	67.5	.	3.4	-32.4	2.7%
COc1ccc(CNC(=O)c2ccc3c(=O)n(CCCN4CCCC4=O)c(=S)[nH]c3c2)cc1	5.8	.	3.4	1.4	6.8%
Clc1ccc2nc(C3CCN(Cc4ccccc4)CC3)[nH]c2c1	-0.3	-35.0	0.0	0.1	11.5%
CCN(CC)S(=O)(=O)c1cccc(N=NC2=C(O)CCCC2=O)c1	-2.2	-23.6	-2.8	3.6	-1.8%
CC(=O)N1CCc2c(sc(NC(=O)Cc3ccccc3)c2C(N)=O)C1	0.7	.	-3.8	.	.
O=C(Cn1cc(C(F)(F)F)ccc1=O)NCCc1ccc(Cl)cc1Cl	0.1	16.2	-0.5	-3.1	12.7%
O=C(/C=C/c1ccco1)N1CCN(C/C=C/c2ccccc2)CC1	5.2	-13.8	4.5	-0.5	-4.2%
O=C(CSc1nccn1Cc1ccco1)Nc1ccccc1	-1.4	.	0.5	.	.
COC(=O)C1=CN(c2ccc(Cl)cc2)C=C(C(=O)OC)C1c1ccc([N+](=O)[O-])cc1	2.9	.	-1.7	.	.
CCN(CC)S(=O)(=O)c1ccc(N2CCOCC2)c(NC(=O)COc2ccc(C#N)cc2)c1	-7.1	.	-3.6	.	7.2%
CCN(CC)S(=O)(=O)c1cccc(C(=O)NN2Cc3ccccc3C2=N)c1	11.6	-22.4	-0.9	1.1	-15.2%
Cc1ccc2c(c1)/C(=N/O)CCS2	-4.2	-19.0	2.0	0.4	-5.0%
Cc1cc(Sc2nc(N(C)C)nc(N(C)C)n2)nc(Cl)n1	-0.7	.	-0.9	6.3	4.4%
COc1ccc(CCn2c(=N)c(C(=O)NCC3CCCO3)cc3c(=O)n4ccccc4nc32)cc1 (stereo not drawn)	8.1	.	-2.1	.	.
CC(C)Oc1cccc(C(=O)C2CCCN(C(=O)c3ccoc3)C2)c1 (stereo not drawn)	-5.8	.	1.3	10.7	-0.1%
COc1cc(/C=C2\CC(C(C)(C)C)C/C(=C\c3cc(OC)c(OC)c(OC)c3)C2=O)cc(OC)c1OC (stereo not drawn)	6.6	.	16.9	.	.
COc1ccc(N(CC(=O)Nc2cc(OC)ccc2OC)S(=O)(=O)c2c(C)nn(C)c2C)cc1	-6.5	-45.6	0.0	-3.1	.	Arbovirus inh repeat=0.5
COC(=O)C1=C(C)NC(=O)NC1c1ccc(-c2ccc(F)cc2)o1 (stereo not drawn)	-11.0	.	1.0	5.9	-5.0%
O=C(NCCCCNC(=O)c1ccc(Br)s1)c1ccc(Br)s1	5.4	-2.5	-0.9	0.6	-1.4%
CC(C)(C)c1nnc(NC(=O)CCS(=O)(=O)c2ccccc2)s1	3.5	.	0.0	.	.
CN(C)S(=O)(=O)Nc1cccc(Br)c1	0.0	.	1.7	.	-11.4%&15.5%
COC(=O)C(C)N1CCC(=O)c2ccccc2S1(=O)=O (stereo not drawn)	-1.1	.	-1.4	.	-5.2%
O=C(O)c1ccc2c(c1)S(=O)(=O)c1ccccc1C2=O	-2.0	.	-0.5	.	.
Cn1c(-c2sc3cc(C(F)(F)F)cnc3c2-c2cccs2)n[nH]c1=S	-2.6	.	-0.4	9.8	8.4%
O=c1[nH]c2ccc([N+](=O)[O-])cc2nc1/C=C(\O)c1ccccc1	90.3	.	-3.8	.	-0.5%
COc1cc(NC(=O)Nc2c(C)n(C)n(-c3ccccc3)c2=O)cc(OC)c1OC	-1.9	.	-4.1	.	.
Oc1ccc(Br)cc1CNc1cccc2cccnc12	5.0	.	20.6	.	.
CC(C)COc1ccc(-c2nnc(-c3ccncc3)o2)cc1	45.9	-13.8	-0.2	6.2	-4.2%
Oc1ccc(C[C@@H]2CNCCN2CC2CCCCC2)cc1	-8.3	.	-1.4	.	.
O=C(NC1CCCCC1)N1CCCc2ccccc21	22.3	-18.6	.	9.9	-7.8%	Arbovirus inh repeat=5.8
COc1ccc(/C=C2/C(=O)C(C)(C(C)C)CCC2C)cc1 (stereo not drawn)	8.3	.	1.3	.	.
COc1cccc(CNC(=O)CCn2c(=O)oc3ccccc32)c1	-14.5	-73.7	0.6	-0.2	-1.5%
CCN(CC)c1ccc(S(=O)(=O)N2CCCCC2)cc1NC(=O)CN1C(=O)NC2(CCCC2)C1=O	-1.8	.	2.5	.	.
Cc1cc(C)n2nc(-c3ccccc3)c(-c3ccccc3)c2n1	5.2	.	-7.8	.	.
CC(C)C12CN3CC(C(C)C)(CN(C1)C3c1ccco1)C2=O (stereo not drawn)	-4.3	2.2	-2.9	10.1	-5.6%
Cn1c(O)c(C=Nc2ccc(Br)cc2)sc1=O	-0.9	.	0.3	1.5	1.9%
O=C(Nc1nc(-c2ccc(Cl)cc2)cs1)C1CCCO1 (stereo not drawn)	-0.1	.	2.5	22.4	56.9%
CCOc1ccc2[nH]c(=O)c(CN(CCO)C(=O)c3ccc(OC)c(OC)c3)cc2c1	-4.8	3.6	-0.2	5.0	-5.4%
O=C1NCCN(C(=O)CCc2nnc(-c3ccsc3)o2)C1c1ccc(F)cc1 (stereo not drawn)	-2.3	.	-1.0	2.9	0.9%
COc1ccc(CCNCC(=O)Nc2ccccc2C(F)(F)F)cc1	-3.1	.	-0.4	1.4	1.7%
COc1ccc(N2CCN(C(CNC(=O)C(=O)NCc3ccncc3)c3ccco3)CC2)cc1 (stereo not drawn)	-0.6	.	-0.8	10.9	-3.5%
(next part)
SMILES	Mtb bLac sens	YopH inh	RecA splice inh	Arbovirus inh	Mtb growth	others
COc1ccc(-c2c(C(C)=O)c(C)nc3sc4c(=O)[nH]nnc4c23)cc1	-4.3	-19.4	-1.9	-2.3	-11.0%
CC(C)CC(=O)NC(NC(=O)CC(C)C)c1cccc([N+](=O)[O-])c1	4.1	.	-0.4	0.3	2.0%
Cc1ccc(CN2[C@@H]3c4ccccc4C[C@@H]3OCCS2(=O)=O)cc1	7.6	.	1.2	.	.
Cc1ccccc1CSCC(=O)NC(=O)NCc1ccco1	2.0	-19.1	1.3	0.7	9.2%
COC(=O)C1CN(C(=O)COc2ccc(Cl)cc2C)c2ccccc2O1 (stereo not drawn)	23.5	.	2.6	.	.
COc1ccc(/C=C2/CCOC2=O)cc1	-4.1	-14.9	-0.3	2.2	-6.4%
O=C(COc1ccccc1)Nc1nnc(-c2ccc(Cl)s2)o1	56.6	.	3.0	4.0	0.5%	Arbovirus inh repeat=-8.8
CCOC(=O)c1c(NC(=O)c2c(N)n(CCCOC)c3nc4ccccc4nc23)sc2c1CCCC2	1.7	9.8	-0.2	13.3	2.2%
Cc1cc(NC(=O)CSc2nccn2-c2ccc(F)cc2)no1	-4.0	4.9	-11.9	1.3	-7.0%
COc1ccc(-n2nnnc2SCC(=O)NCc2ccco2)cc1OC	-0.2	-19.5	0.2	2.6	-0.6%
O=C(Cn1nc(C(=O)O)c2ccccc2c1=O)Nc1ccc(Br)cc1	4.1	.	-0.3	.	.
Cc1cccn2c(=O)c(C=O)c(N3CCC4(CC3)OCCO4)nc12	-5.3	.	-7.9	.	-2.4%
COc1ccc(C(=O)/C=C/Nc2c(C)n(C)n(-c3ccccc3)c2=O)c(OC)c1	-1.0	.	-2.6	8.9	1.5%
O=C(NC1CCS(=O)(=O)C1)c1cccnc1 (stereo not drawn)	2.9	.	-0.6	-1.1	-6.1%
CC(C)c1cccc(C(C)C)c1NC(=O)c1ccccc1	12.4	.	-1.6	2.8	-0.6%
CC(NC(=S)Nc1ccccc1C(F)(F)F)C1CC2CCC1C2 (stereo not drawn)	-0.2	.	0.5	3.9	8.1%
O=C(c1cccnc1)N(c1cc2sc(=O)oc2c2ccccc12)S(=O)(=O)c1ccccc1	10.3	7.5	1.0	-35.6	1.1%
CC(C)Cn1c(SCC(=O)N(C)C2CCS(=O)(=O)C2)nc2cc(Cl)ccc2c1=O (stereo not drawn)	-10.3	.	-0.3	.	.
O=S(=O)(N1CCOCC1)N1CCN(c2ccc(F)cc2)CC1	3.8	12.1	2.6	7.1	-7.1%
CNCCCOc1cccc(Oc2ccccc2)c1	0.5	.	0.1	-30.3	1.8%
Cc1ccc(O)c(Nc2nc(-c3ccccc3)nc3ccccc23)c1	-0.9	.	-1.3	.	.
O=C(NC1CCCCC1)C(c1ccccn1)N(C(=O)c1csnn1)C1CC1 (stereo not drawn)	-1.0	.	-3.1	3.6	-0.9%
O=C(CSc1nnc(COc2ccc(F)cc2)o1)N1c2ccccc2CCc2ccccc21	15.8	-32.4	29.0	8.2	5.1%
Cc1ccc(C)c(NC(=O)CCC(=O)NNC(=O)C(c2ccccc2)c2ccccc2)c1	13.5	-29.3	1.4	-16.7	-0.1%
CN(C(=O)COC(=O)CCCN1C(=O)c2cccc3cccc(c23)C1=O)C1CCS(=O)(=O)C1 (stereo not drawn)	-6.0	.	-0.6	.	.
O=C1CC(/C=C/c2ccc([N+](=O)[O-])cc2)=Nc2ccccc2N1	39.8	.	7.2	.	73.7%
